# MenB inh – M. tuberculosis MenB inhibitors, primary screen, biochemical, absorbance; 1,4-dihydroxy-2-naphthoyl-CoA synthase (Mycobacterium tuberculosis (strain ATCC 25618 / …; MenB enzyme assay, absorbance read-out; some hits fall short of the stated cut; inhibition, %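 (about 12 µg/mL by stock and volumes)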; 100,000 compounds, 0.43% hits; AID 540299, 2011;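 active means mean of two replicates above 30%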;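 further: 0% = no compound and 100% = wells with inactive enzyme; the first replicate is given; strong numbers were not always called active; inactives centre near -10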
# Target sequence (P9WNP5 whole entry, looked up): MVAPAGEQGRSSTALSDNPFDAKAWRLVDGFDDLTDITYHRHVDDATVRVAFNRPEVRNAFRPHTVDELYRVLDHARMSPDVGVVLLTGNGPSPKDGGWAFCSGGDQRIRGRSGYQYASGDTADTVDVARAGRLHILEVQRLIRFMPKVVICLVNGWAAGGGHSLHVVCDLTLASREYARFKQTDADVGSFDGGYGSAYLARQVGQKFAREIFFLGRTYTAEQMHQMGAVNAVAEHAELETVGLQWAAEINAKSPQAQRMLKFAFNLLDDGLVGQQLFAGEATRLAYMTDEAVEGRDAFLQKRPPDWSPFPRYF
# Mtb MbtI inh – MbtI salicylate synthase inhibitors, primary screen, biochemical, fluorescence intensity; purified MbtI enzyme, fluorescence intensity read-out; inhibition, %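 (about 17 µg/mL by stock and volumes)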; 100,000 compounds, 0.89% hits; AID 493033, 2011;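 active means above 50% in both replicates, above 80% if mildly self-fluorescent; inactive means the rest, strongly fluorescent compounds included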;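 further: 0% = mean of negative and 100% = mean of positive controls; one replicate is shown; some compounds called inactive have numbers as strong as hits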
# Polio RdRp inh – poliovirus RdRp elongation inhibitors, primary screen, biochemical, fluorescence polarization, total intensity; Genome polyprotein (Poliovirus type 1 (strain Mahoney)), P03300; poliovirus polymerase elongation; hits give low values; % elongation, % (compound at 16.7 µg/mL); 150,000 compounds, 0.66% hits; AID 588519, 2011; in the data active means % elongation below about 90%; further: some results filed as inactive read as strong as hits
# Target sequence (P03300 1749-2209 limits assumed): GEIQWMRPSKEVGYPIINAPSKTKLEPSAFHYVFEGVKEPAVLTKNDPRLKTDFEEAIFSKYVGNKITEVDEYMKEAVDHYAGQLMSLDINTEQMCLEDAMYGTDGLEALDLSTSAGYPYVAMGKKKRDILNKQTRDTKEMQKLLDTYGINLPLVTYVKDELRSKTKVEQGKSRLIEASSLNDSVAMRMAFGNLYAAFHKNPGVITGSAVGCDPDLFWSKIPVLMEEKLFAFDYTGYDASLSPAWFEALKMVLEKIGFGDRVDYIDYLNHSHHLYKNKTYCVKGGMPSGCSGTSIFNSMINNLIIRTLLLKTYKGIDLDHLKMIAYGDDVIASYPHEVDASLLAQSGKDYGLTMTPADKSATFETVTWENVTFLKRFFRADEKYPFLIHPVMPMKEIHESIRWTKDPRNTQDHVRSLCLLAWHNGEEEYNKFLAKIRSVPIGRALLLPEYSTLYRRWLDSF
# Polio RdRp inh intensity – further read-out of Polio RdRp inh, marked with its call; % elongation; measured here: total intensity read-out; formula for this scale not given here;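 total fluorescence in place of polarization; lower means less elongation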
# Active calls of the source: *; . = no result given; & = joins results of further samples.
# Preview, 5 compounds:
SMILES,MenB inh,Mtb MbtI inh,Polio RdRp inh,Polio RdRp inh intensity
O=C(NCc1ccccn1)c1cc(-c2cccnc2)nc2ccccc12,-51.2,5.9,105.0,108.0
COCCN(Cc1cc2cc3c(cc2nc1Cl)OCO3)C(=O)Nc1ccccc1OC,-34.8,-8.9,103.0,97.0
O=C(CSc1ccccn1)N1CCC(c2ccccc2)=N1,-9.5,24.5,104.0,105.0
Cc1ccc(NC(=O)Cc2c(O)c3ccccc3[nH]c2=O)c(C)c1,-15.5,-233.8,101.0,103.0
CC(C)Cn1c(SCC(=O)c2ccc(Cl)s2)nnc1-c1ccco1,-32.5,16.3,112.0,110.0

# This part in full, from the first entry:
SMILES,MenB inh,Mtb MbtI inh,Polio RdRp inh,Polio RdRp inh intensity
O=C(NCc1ccccn1)c1cc(-c2cccnc2)nc2ccccc12,-51.2,5.9,105.0,108.0
COCCN(Cc1cc2cc3c(cc2nc1Cl)OCO3)C(=O)Nc1ccccc1OC,-34.8,-8.9,103.0,97.0
O=C(CSc1ccccn1)N1CCC(c2ccccc2)=N1,-9.5,24.5,104.0,105.0
Cc1ccc(NC(=O)Cc2c(O)c3ccccc3[nH]c2=O)c(C)c1,-15.5,-233.8,101.0,103.0
CC(C)Cn1c(SCC(=O)c2ccc(Cl)s2)nnc1-c1ccco1,-32.5,16.3,112.0,110.0
CN1CCN(C(=O)c2ccc(C(C)(C)C)cc2)CC1,12.4,-25.9,101.0,101.0
COc1ccc(C2/C(=C(\O)c3ccc(F)cc3)C(=O)C(=O)N2c2nnc(C)s2)cc1OC (stereo not given),-39.4,-0.2,100.0,97.0
Cc1ccc(C(O)CN=Cc2c(O)ccc3ccccc23)cn1 (stereo not given),.,4.7,101.0,95.0
COc1ccc(C)cc1NC(=O)CN1CCCC1c1ccc2c(c1)OCCCO2 (stereo not given),-25.3,-4.2,105.0,108.0
CC(=O)Nc1cc2ccc(OC(C)=O)cc2oc1=O,7.5,21.1,105.0,99.0
CCOc1ccc(-c2nonc2NC(=O)c2oc3cc(C)c(Cl)cc3c2C)cc1OCC,1.4,-8.7,103.0,105.0
C=CCn1c(SCC(=O)c2ccc(Cl)s2)nnc1-c1ccncc1,-28.4,9.9,105.0,95.0
COc1cccc(-c2ncnn2-c2cccc(Cl)c2C)c1,13.4,10.4,97.0,100.0
Cc1ccc(C)n1C(Cc1c[nH]c2ccccc12)C(=O)O (stereo not given),-10.0,32.3,99.0,108.0
Cc1cc(-c2ccc(C)c(S(=O)(=O)N3CCc4ccccc43)c2)on1,-5.5,2.0,100.0,103.0
Cc1ccc(-c2cc(NC(=O)CN3CC(C(=O)N4CCOCC4)Oc4ccccc43)on2)cc1 (stereo not given),-21.3,-4.2,108.0,121.0
CCc1cccc(NC(=O)C(NC(=O)C2CCC(C)CC2)C(C)C)c1 (stereo not given),0.7,9.8,99.0,105.0
COC(=O)c1[nH]nc2c1C(=O)N(c1ccc(F)cc1)C2=O,-6.0,16.3,100.0,99.0
CCC(=O)NC1(Cc2ccc(O)cc2)CCCCC1,-3.3,-7.6,99.0,100.0
Cc1cc(N)ccc1-n1cnnn1,-4.0,-8.7,101.0,101.0
Cc1c(C(=O)N2CCc3ccccc32)oc2c1C(=O)CC(C)(C)C2,-10.2,24.6,102.0,103.0
COc1cccc(OCCNC(=O)c2cc(C(F)(F)F)cc(C(F)(F)F)c2)c1,-26.3,.,108.0,108.0
COC(=O)c1c(C)n(S(C)(=O)=O)c2ccc(NS(C)(=O)=O)cc12,3.6,-0.8,99.0,102.0
O=C(OCC(O)CO)c1ccccc1Nc1ccnc2cc(Cl)ccc12 (stereo not given),-4.7&-1.2,21.5&-19.9,101.0&102.0,101.0&101.0
CSc1nc2ccccc2n1Cc1ccccc1F,5.2,-4.4,99.0,102.0
COC(=O)c1ccc(C2C3=C(CC(c4ccco4)CC3=O)Nc3ccccc3N2C(=O)C2CC2)cc1 (stereo not given),-28.3,10.1,106.0,107.0
CCN(CC(=O)Nc1ccc(N2CCOCC2)cc1)CC(=O)Nc1cc(C)on1,-13.4,-3.6,112.0,123.0
Cc1cc(=O)oc(C)c1C(=O)NCCC1=CCCCC1,-20.3,20.0,102.0,100.0
COc1ccc2c(CN3c4ccccc4CC3C)cc(=O)oc2c1 (stereo not given),-8.6,27.0,103.0,105.0
CCN1CCN(CCNC(=O)c2cc(-c3ccccc3)c(N3CCOCC3)s2)CC1,11.4,17.4,100.0,96.0
Cc1sc(/N=C/c2cn(Cc3ccccc3)c3ccccc23)c(C#N)c1C,2.1,-1.0,102.0,105.0
O=C(CSc1ncc(C(F)(F)F)cc1Cl)c1ccc(O)cc1O,-7.0,-5.2,109.0,103.0
Cc1cc(C)nc(SCc2ccc(-c3nnc4n3CCCCC4)cc2)n1,-5.6,0.4,101.0,95.0
CC1OC(O[C@H]2/C=C/C=C/C=C/C=C/C=C/C=C/C=C/[C@H](C)[C@@H](O)[C@@H](C)[C@H](C)OC(=O)C[C@H](O)C[C@H](O)CC[C@@H](O)[C@H](O)C[C@H](O)C[C@]3(O)C[C@H](O)[C@@H](C(=O)O)[C@H](C2)O3)C(O)C(N)C1O (stereo not given in full),9.9,2.8,99.0,99.0
O=C1N(CCc2ccccc2)c2ccccc2C12OCCCO2,2.5,-16.8,102.0,103.0
CCOC(=O)/C=C1\CCCCCN1,3.0,19.3,104.0,108.0
Cc1nn(-c2ccccc2)c(Cl)c1C1N(Cc2ccccc2)CCN1Cc1ccccc1,-2.5,.,104.0,112.0
CN(C(=O)c1ccccc1)c1ccc(OCC(=O)NC2CCS(=O)(=O)C2)cc1 (stereo not given),-9.1,12.6,107.0,110.0
Cc1ccc(Nc2cc(=O)[nH]n2C)cc1Cl,-79.7,1.4,103.0,106.0
Cc1csc(OCC(=O)Nc2ccc(C)c(C)c2)n1,-16.3,3.0,101.0,105.0
CNC(=O)C1CCCN(c2nnc(-n3c(C)ccc3C)s2)C1 (stereo not given),-26.5,4.1,104.0,103.0
Cc1ncoc1C(=O)NCc1ccc(Cl)cc1,3.3,12.6,100.0,104.0
COc1ccc(C(=O)OCC(=O)NC2CC2)cc1,-39.3,-4.8,105.0,107.0
Cc1c(NC(=O)C(C)OC(=O)Cc2ccccc2)c(=O)n(-c2ccccc2)n1C (stereo not given),-0.8,-2.2,99.0,101.0
OCC1CCCN(C(=S)NCc2ccccc2)C1 (stereo not given),-20.4,.,110.0,105.0
COC(=O)c1cnc(N2CCCN(S(=O)(=O)c3cccc4nonc34)CC2)nc1C(F)(F)F,-1.8,2.5,103.0,104.0
COc1ccc(CCNC(=O)C2CCCN(c3nc4ccccc4o3)C2)cc1OC (stereo not given),-7.9,17.6,99.0,101.0
CCOc1ccc(NC(=S)NCC2CCCO2)cc1 (stereo not given),-24.1,-2.1,100.0,101.0

# Complete entries from above:
# Cc1nn(-c2ccccc2)c(Cl)c1C1N(Cc2ccccc2)CCN1Cc1ccccc1 is entered as MenB inh: -2.5; Mtb MbtI inh: .; Polio RdRp inh: 104.0; Polio RdRp inh intensity: 112.0
# CN(C(=O)c1ccccc1)c1ccc(OCC(=O)NC2CCS(=O)(=O)C2)cc1 (stereo not given) is entered as MenB inh: -9.1; Mtb MbtI inh: 12.6; Polio RdRp inh: 107.0; Polio RdRp inh intensity: 110.0

# New compounds follow.
SMILES,MenB inh,Mtb MbtI inh,Polio RdRp inh,Polio RdRp inh intensity
CCN(CC)CC(=O)N1N=C(c2cccs2)CC1c1ccco1 (stereo not given),-14.3,9.5,.,.
O=C(CCCn1ccc2cc(S(=O)(=O)N3CCCC3)ccc21)NCCc1ccccc1,-14.9,-30.8,103.0,102.0
COc1ccc(-c2noc(CN(C(=O)Nc3cccc(Cl)c3)C3CCCCC3)n2)cc1OC,-17.7,13.2,103.0,98.0
CCOC(=O)N1CCN(C(=O)CCCCn2c(=S)[nH]c3c([nH]c4ccc(OC)cc43)c2=O)CC1,15.2,9.6,99.0,103.0
CCc1cccc(NC(=O)COc2cc(=O)n(C)c3ccccc23)c1,0.0,0.7,102.0,98.0
CCOc1ccc(C2CC(=O)N3CN(CCO)CSC3=C2C#N)cc1 (stereo not given),-30.1,48.2,102.0,103.0
O=C(OCC(=O)N(C1CCCCC1)C1CCCCC1)c1ccc(O)cc1,-11.6,-1.2,105.0,113.0
Cc1cc(C)c(C#N)c(SCC(O)CS(=O)Cc2ccccc2)n1 (stereo not given),-1.1,58.0,100.0,107.0
O=S(=O)(NC1=NCCCCC1)c1ccc(F)cc1F,.,-13.4,101.0,97.0
COc1ccccc1N1CCN(C(=O)C2c3ccccc3C(=O)N3CCC(C)CC23)CC1 (stereo not given),0.5,0.3,99.0,100.0
O=S(=O)(c1ccc(N=Cc2c(O)ccc3ccccc23)cc1)N1CCCCC1,-13.8,.,44.0,243.0
Cc1cc2c(cc1C)NC(c1ccc(O)cc1O)C1=C(CC(C)(C)CC1=O)N2 (stereo not given),-0.7,3.2,100.0,104.0

# 3 structures out of the list, sorted by count of non-hydrogen atoms, smallest number first.
SMILES,MenB inh,Mtb MbtI inh,Polio RdRp inh,Polio RdRp inh intensity
Cc1ccc(C(O)CN=Cc2c(O)ccc3ccccc23)cn1 (stereo not given),.,4.7,101.0,95.0
Cc1cc(C)c(C#N)c(SCC(O)CS(=O)Cc2ccccc2)n1 (stereo not given),-1.1,58.0,100.0,107.0
Cc1ccc(-c2cc(NC(=O)CN3CC(C(=O)N4CCOCC4)Oc4ccccc43)on2)cc1 (stereo not given),-21.3,-4.2,108.0,121.0

# Next section:
SMILES,MenB inh,Mtb MbtI inh,Polio RdRp inh,Polio RdRp inh intensity
O=C(CSCCO)N1CCc2ccccc21,38.8,1.6,100.0,100.0
CCCC(=Nc1ccccc1O)C1=C(O)CC(CC(C)SCC)CC1=O (stereo not given),-10.8,1.8,103.0,101.0
N#CC(C#N)=CNc1nccs1,-5.8,105.9,103.0,105.0
CCn1c(C)cc(O)cc1=O,-113.7,28.4,107.0,107.0
Cc1ccccc1Nc1nc(N)nc(CSc2nc3ccccc3c(=O)n2CCCO)n1,7.0,4.2,102.0,97.0
Cc1ccc(Cl)cc1NC(=O)CCC(=O)NCc1ccco1,-22.6,-11.7,105.0,104.0
CC1(C)CC(NC(=O)C23CC4CC(CC(C4)C2)C3)CC(C)(C)N1,.,3.0,101.0,100.0
CCOC(=O)c1cc(C(N)=S)c(=O)[nH]c1O,4.3,60.2,103.0,106.0
Nc1ncnc(N2CCCc3ccccc32)n1,-11.2,-18.7,102.0,104.0
CN1CCN(C(CNC(=O)NC2CCCCC2)c2ccc(F)cc2)CC1 (stereo not given),-17.4,0.6,101.0,107.0
c1csc(-c2nnc(Sc3nc(CN4CCCCC4)nc4sc5c(c34)CCCC5)o2)c1,-8.5,12.0,91.0,95.0
O=C1C=C(Nc2cccc3ccccc23)CCC1,.,12.7,103.0,103.0
O=C(Nc1ccc2c(c1)nc1n2CCCCC1)c1cc2ccccc2o1,-23.1,-2.0,103.0,107.0
NC(=O)COc1ncnc2scc(-c3ccccc3)c12,-32.5,10.9,102.0,108.0
CCN(CC)c1ccc(NC(=O)c2ccccc2F)cc1,-25.2,6.9,100.0,105.0
O=c1[nH]c2cc3nc(C(F)(F)C(F)(F)F)[nH]c3cc2[nH]1,5.6,13.4,101.0,103.0
CCN(CC)S(=O)(=O)c1ccc(NC(=O)Cn2ncc3c(=O)oc4ccc(C)cc4c32)cc1,-6.3,-6.9,100.0,103.0
O=C(O)COc1ccc(NS(=O)(=O)c2cccc3nsnc23)cc1,-0.6,.,103.0,105.0
CCNc1ccc(C(=O)OCC)cc1NC(=O)c1cccc(N(C)C)c1,-73.5,-15.2,103.0,105.0
N#CC1=C(N)SC(c2cccs2)C(C#N)=C1N (stereo not given),-274.5,.,44.0,243.0
Cc1cc(C(=O)OCC(N)=O)c(C)n1-c1ccccc1,.,-1.0,101.0,104.0
CC(C)(C)NC(=O)Nc1ccc2ccccc2c1,5.1,-1.1,107.0,99.0
Cc1c(C(=O)N2CCC(C(=O)N3CCCCC3)CC2)oc2cc3sc(N(C)C)nc3cc12,5.3,-10.8,103.0,99.0
NC(C(=O)O)C(c1ccccc1)C(F)(F)F (stereo not given),-26.3,13.2,101.0,104.0
COc1cccc(Nc2ccc(Nc3cccc(OC)c3)nn2)c1,-5.3,.,107.0,100.0
Fc1ccc(-c2nnc3ccc(N4CCN(C(=S)NCc5ccccc5)CC4)nn23)cc1,-30.1,58.7,101.0,103.0
CCSc1nnc(NC(=O)CC2OC(=O)c3ccccc32)s1 (stereo not given),-34.8,-3.6,116.0,150.0
c1cc(C2OCCO2)ccc1C1OCCO1,-56.5,-2.5,103.0,101.0
Cn1cnc2c(Cl)ncnc21,-1.1,-3.5,97.0,104.0
CCN(CC)c1ccc(CN2CCCC(CO)C2)cc1 (stereo not given),-18.9,2.7,103.0,104.0
N#Cc1nc(-c2ccccc2F)oc1NCC1CCCO1 (stereo not given),-13.7,106.8,105.0,108.0
CCn1c(CNC(=O)c2ccc(C)cc2)nnc1SCC(=O)NCc1ccccc1,-12.7,-8.8,100.0,102.0
CN1C2CCC1CC(=NOC(=O)c1ccc(F)cc1)C2,8.6,0.8,99.0,102.0
CSc1ccccc1NC(=O)c1cc2n(n1)C(C(F)(F)F)C1CCc3ccccc3C1N2 (stereo not given),-4.1,.,104.0,103.0
CC(C)NC(=O)CSCc1ccc(Cl)cc1,1.3,.,104.0,110.0
Cn1ccnc1SCC(=O)c1cccc(C(F)(F)F)c1,.,2.9,103.0,101.0

# Compound activity (PubChem)
